Compound activity from PubChem.
NPYLR7 ag: activates Aedes aegypti NPYLR7 receptor; HEK293T NPYLR7/Galpha15, GCaMP6s calcium fluorescence; activation, % at 10 µM; hit rate 0.15% among 270,000; AID 1259423; in the data active = activation above about 40%;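 note: 0% = vehicle and 100% = reference agonist at the receptor; some compounds past the cut are filed as inactive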
NPYLR7 ag max-min: second read-out of NPYLR7 ag, no call of its own (marks repeat the call); activation, %; measured here: Max-Min RFU normalised activation; some inactives read as strong as hits;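 span of the calcium signal over five minutes; 0% = vehicle and 100% = native peptide agonist; compound fluorescence can raise it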
Active calls of the source: *; & = joins results of further samples. This is a subset (hit frequency here may not be typical).

Screening CCOC(=O)c1cc(-c2cccc(NC(=O)c3cc(C)oc3C(F)(F)F)c2)n(-c2ccccc2OC)n1 returned NPYLR7 ag 21 and NPYLR7 ag max-min 15.
O=c1[nH]c(CN2CCN(Cc3ccccc3)CC2)nc2scc(-c3ccc(F)cc3)c12 was read as NPYLR7 ag -1 and NPYLR7 ag max-min 5.
CCOC(=O)N1CCN(C(=O)CSc2nc3c(c(=O)n2-c2cc(C)cc(C)c2)SCC3)CC1 was read as NPYLR7 ag -12 and NPYLR7 ag max-min -15.
Screening Cc1cccnc1CC(C)NC(=O)c1cn2c3c(cccc3c1=O)CC2 (configuration not stated) returned NPYLR7 ag 12 and NPYLR7 ag max-min 6.
CCOC(=O)c1c(CN2CCN(CC#N)CC2)n(-c2ccccc2)c2cc(Br)c(OC)cc12 was read as NPYLR7 ag -10 and NPYLR7 ag max-min -14.
`c1ccc(Cn2c(-c3cccnc3)cc3cnc(Nc4ccc5c(c4)OCCO5)cc32)cc1` gave NPYLR7 ag -14 and NPYLR7 ag max-min -15.
CN=c1scc(-c2ccc(F)cc2)n1N=Cc1ccc(O)c(O)c1 was read as NPYLR7 ag -16 and NPYLR7 ag max-min -20.
For CC(C)N(C)Cc1cn(Cc2ccccc2)nc1-c1ccc2c(c1)OCO2 the results were NPYLR7 ag 0 and NPYLR7 ag max-min -4.
`Cc1cc(-n2c(C)cc(C(=O)CSc3nnnn3Cc3cccs3)c2C)no1` gave NPYLR7 ag 4 and NPYLR7 ag max-min 11.
For CCNC(=O)NC(=O)CSc1nc2sc(C)c(C)c2c(=O)n1C1CCCC1 the results were NPYLR7 ag 0 and NPYLR7 ag max-min 4.
`CSc1ccc(NC(=O)N(CCN2CCOCC2)CC(=O)N(Cc2ccc(F)cc2)Cc2sccc2C)cc1` gave NPYLR7 ag 6 and NPYLR7 ag max-min 15.
`COc1ccc(OC)c(NC(=O)c2cc3ccccc3oc2=O)c1` gave NPYLR7 ag -6&-2 and NPYLR7 ag max-min -6&0.
`COC(=O)C1C(=O)NC(SCc2ccccc2)=C(C#N)C1c1ccccc1Cl` (configuration not stated) gave NPYLR7 ag -1 and NPYLR7 ag max-min -5.
NC(=O)c1cccc2c1CCCN2C(=O)/C=C/c1cccs1 was read as NPYLR7 ag -4 and NPYLR7 ag max-min -6.
CC1=CC(=NNc2ccc(S(N)(=O)=O)cc2[N+](=O)[O-])CC(C)(C)C1 was read as NPYLR7 ag -6 and NPYLR7 ag max-min -10.
For CCc1nc(-c2ccccc2)nc(N2CCN(C(=O)c3ccccc3Cl)CC2)c1Cc1ccccc1F the results were NPYLR7 ag 14 and NPYLR7 ag max-min 17.
`Cc1nc2c(-c3ccccc3)c(C)[nH]n2c(=O)c1C` gave NPYLR7 ag -2 and NPYLR7 ag max-min -3.
`CC(C)COCC(O)CN(Cc1ccc(F)cc1F)CC1CCCO1` (configuration not stated) gave NPYLR7 ag 27 and NPYLR7 ag max-min 20.
O=P(O)(CN1CCCCCC1)CN1CCCCCC1 was read as NPYLR7 ag 5 and NPYLR7 ag max-min 12.
CCOc1nn(CC)cc1-c1n[nH]c(=S)n1C was read as NPYLR7 ag 2 and NPYLR7 ag max-min -1.
For NC(=S)N=Nc1[nH]c(N)c2ccccc12 the results were NPYLR7 ag 6 and NPYLR7 ag max-min 7.
Screening CCOC(=O)c1c(C)oc2ccc(OCC(=O)NNC(=O)c3cccc(OC)c3)cc12 returned NPYLR7 ag -13 and NPYLR7 ag max-min -11.
Screening CNc1nn(CC(=O)Nc2cc(Cl)ccc2OC)c(N)c1-c1nc(-c2ccc(C)cc2)no1 returned NPYLR7 ag -5 and NPYLR7 ag max-min -6.
Screening CC(C)CN(CCC(=O)NCc1cccc(C(F)(F)F)c1)c1nc(Cc2ccccc2)ns1 returned NPYLR7 ag -3 and NPYLR7 ag max-min 2.
`C/C=C/CN1CCC=C(CNC(=O)c2ccccc2NC(C)=O)C1` gave NPYLR7 ag 15 and NPYLR7 ag max-min 0.
`O=C(CSc1nnc(-c2ccc(Cl)cc2)n1-c1ccccc1)N/N=C\c1c2ccccc2cc2ccccc12` gave NPYLR7 ag -4 and NPYLR7 ag max-min -9.
CNS(=O)(=O)c1cc(/C=C/C(=O)N2CCCc3cc(F)c(F)cc32)ccc1OC was read as NPYLR7 ag 9 and NPYLR7 ag max-min 7.
`COc1ccccc1C(=O)Nc1ccc(-c2nc3cc(Cl)ccc3o2)c(Cl)c1` gave NPYLR7 ag 28 and NPYLR7 ag max-min 22.
O=C(NCCn1ncc2c(N3CCCCC3)ncnc21)c1cccs1 was read as NPYLR7 ag 1 and NPYLR7 ag max-min -1.
For O=C(CSc1nnc2n(-c3ccccc3)c(=O)c3ccccc3n12)N1CCCC1 the results were NPYLR7 ag -11 and NPYLR7 ag max-min -12.
Screening N=c1sc2ccccc2n1CC(=O)OCc1ccccc1 returned NPYLR7 ag 1 and NPYLR7 ag max-min 0.
For O=C(CSc1nc(=O)n(CC2CCCO2)c2c1CCC2)Nc1ccc(F)c([N+](=O)[O-])c1 (configuration not stated) the results were NPYLR7 ag -3 and NPYLR7 ag max-min -8.
CCc1[nH]n(C)c(=O)c1C1=C(N(C)Cc2ccccc2)C(=O)N(c2cc(C)ccc2OC)C1=O was read as NPYLR7 ag 22 and NPYLR7 ag max-min 10.
Screening NS(=O)(=O)c1ccc(-n2cccc2C=Nn2cnnc2)cc1 returned NPYLR7 ag 0 and NPYLR7 ag max-min -9.
`COc1ccccc1C(=O)N1CCN(c2cc(C)ccc2OC)C(=O)C1C` (configuration not stated) gave NPYLR7 ag -10 and NPYLR7 ag max-min -8.
`COc1ccc2nc(CCN(C)C(=O)c3cnn4cc(C)cnc34)[nH]c2c1` gave NPYLR7 ag 3 and NPYLR7 ag max-min 1.
For CC(C)n1c(=O)[nH]c2sc3c(c2c1=O)CCN(C(=O)c1cc2ccccc2cn1)C3 the results were NPYLR7 ag 8 and NPYLR7 ag max-min -3.
CN(C)CCN(CC1CCCN(Cc2ccccc2F)C1)C(=O)c1ccc2ncccc2c1 (configuration not stated) was read as NPYLR7 ag 0 and NPYLR7 ag max-min 1.
Screening COc1ccccc1OCCN(C#N)c1nc(N(C)C)nc(N(C)C)n1 returned NPYLR7 ag 1 and NPYLR7 ag max-min 0.
For c1nsnc1OCC1CO1 (configuration not stated) the results were NPYLR7 ag -2 and NPYLR7 ag max-min -3.
Screening COc1ccccc1-c1onc(C)c1C(=O)N(C)CCc1ccccn1 returned NPYLR7 ag 5 and NPYLR7 ag max-min 7.
`CC(=O)c1cc([N+](=O)[O-])c(Sc2cccc(Cl)c2Cl)s1` gave NPYLR7 ag -3 and NPYLR7 ag max-min -6.
N#Cc1ccc(Br)cc1 was read as NPYLR7 ag -2 and NPYLR7 ag max-min -4.
`c1ccc(-n2nnnc2SCCSc2nnnn2-c2ccccc2)cc1` gave NPYLR7 ag 1 and NPYLR7 ag max-min 5.
CCOC(=O)c1cc(-c2ccc(N3CCN(C(=O)c4cccc(OC)c4)CC3)cc2)n(-c2ccccc2Cl)n1 was read as NPYLR7 ag 14 and NPYLR7 ag max-min -1.

Arranged by length of the SMILES (ascending): part of the list above
O=P(O)(CN1CCCCCC1)CN1CCCCCC1 was read as NPYLR7 ag 5 and NPYLR7 ag max-min 12.
Screening N=c1sc2ccccc2n1CC(=O)OCc1ccccc1 returned NPYLR7 ag 1 and NPYLR7 ag max-min 0.
`Cc1nc2c(-c3ccccc3)c(C)[nH]n2c(=O)c1C` gave NPYLR7 ag -2 and NPYLR7 ag max-min -3.
Screening NS(=O)(=O)c1ccc(-n2cccc2C=Nn2cnnc2)cc1 returned NPYLR7 ag 0 and NPYLR7 ag max-min -9.
Screening COc1ccccc1-c1onc(C)c1C(=O)N(C)CCc1ccccn1 returned NPYLR7 ag 5 and NPYLR7 ag max-min 7.
Screening COc1ccccc1OCCN(C#N)c1nc(N(C)C)nc(N(C)C)n1 returned NPYLR7 ag 1 and NPYLR7 ag max-min 0.
For CC(C)N(C)Cc1cn(Cc2ccccc2)nc1-c1ccc2c(c1)OCO2 the results were NPYLR7 ag 0 and NPYLR7 ag max-min -4.
For CCNC(=O)NC(=O)CSc1nc2sc(C)c(C)c2c(=O)n1C1CCCC1 the results were NPYLR7 ag 0 and NPYLR7 ag max-min 4.
`COc1ccc2nc(CCN(C)C(=O)c3cnn4cc(C)cnc34)[nH]c2c1` gave NPYLR7 ag 3 and NPYLR7 ag max-min 1.
For O=C(CSc1nnc2n(-c3ccccc3)c(=O)c3ccccc3n12)N1CCCC1 the results were NPYLR7 ag -11 and NPYLR7 ag max-min -12.
Screening CCOC(=O)c1c(C)oc2ccc(OCC(=O)NNC(=O)c3cccc(OC)c3)cc12 returned NPYLR7 ag -13 and NPYLR7 ag max-min -11.
For CC(C)n1c(=O)[nH]c2sc3c(c2c1=O)CCN(C(=O)c1cc2ccccc2cn1)C3 the results were NPYLR7 ag 8 and NPYLR7 ag max-min -3.
Screening CCOC(=O)c1cc(-c2cccc(NC(=O)c3cc(C)oc3C(F)(F)F)c2)n(-c2ccccc2OC)n1 returned NPYLR7 ag 21 and NPYLR7 ag max-min 15.

Further results follow:
For COc1cc(CN(CCC(C)C)CC(O)COCc2ccccc2)cc(OC)c1 (configuration not stated) the results were NPYLR7 ag 16 and NPYLR7 ag max-min 26.
`COc1ccc(N2C(=O)NC3CC2(C)Oc2c(OC)cc(Br)cc23)c(OC)c1` (configuration not stated) gave NPYLR7 ag -8 and NPYLR7 ag max-min -13.
`CN(C)C(=O)c1ccc(Oc2cnc3ccccc3n2)cc1` gave NPYLR7 ag 5 and NPYLR7 ag max-min 3.
Screening CN1C2CC(OC(=O)[C@H](CO)c3ccccc3)CC1C1OC12 (some centres not stated) returned NPYLR7 ag 3 and NPYLR7 ag max-min -39.
COc1ccc2sc(N(Cc3ccccc3)C(=O)c3ccno3)nc2c1 was read as NPYLR7 ag -5 and NPYLR7 ag max-min -11.
O=C1NCC(=O)N2CCN(C(=O)c3cnc(-c4ccccc4)nc3)CC12 (configuration not stated) was read as NPYLR7 ag 7 and NPYLR7 ag max-min 5.
CCC(C)Cc1c(C)sc2nc(CCl)[nH]c(=O)c12 (configuration not stated) was read as NPYLR7 ag -7 and NPYLR7 ag max-min -10.
For CC(C)Cn1nc(C(=O)N2CCN(C)c3ccccc3C2)c2ccccc2c1=O the results were NPYLR7 ag 0 and NPYLR7 ag max-min 1.
`CCN1C(=O)C2(NCCS2)c2cc(Cl)ccc21` (configuration not stated) gave NPYLR7 ag 1 and NPYLR7 ag max-min 6.
COc1cc(NC(=O)CC(C)C)c(OC)cc1Cl was read as NPYLR7 ag -4 and NPYLR7 ag max-min -4.
Nc1cc(-c2cccc(Cl)c2)nn1-c1ccc(C(=O)N[C@@H]2C[C@H]3CC[C@@H]2C3)cc1 was read as NPYLR7 ag -8 and NPYLR7 ag max-min -15.
For CCc1c(C#N)c(N)nc(SCC(=O)c2ccc(-c3ccccc3)cc2)c1C#N the results were NPYLR7 ag -2 and NPYLR7 ag max-min -6.
For CCc1cc2c(=O)n(Cc3ccco3)c(SCC(=O)Nc3cccc(O)c3)nc2s1 the results were NPYLR7 ag -4 and NPYLR7 ag max-min -5.
`CC(=O)NCCNc1nc(CCN)nc2ccccc12` gave NPYLR7 ag 1 and NPYLR7 ag max-min -2.
Screening O=C(Nc1nnc(SCC2CC2)s1)c1ccc(Cl)cc1 returned NPYLR7 ag -4 and NPYLR7 ag max-min 5.
For CNCC(=O)N(Cc1cccc(Cl)c1)C1CC1 the results were NPYLR7 ag 2 and NPYLR7 ag max-min 3.
`CSC1=NC(=O)/C(=C\N(C)C)N1Cc1ccccc1` gave NPYLR7 ag 5 and NPYLR7 ag max-min 1.
O=C(NC1CCN(c2ccccc2C(=O)N2CCCC2)CC1)c1ccc(Cl)cc1Cl was read as NPYLR7 ag -1 and NPYLR7 ag max-min 3.
`CN1CC2(CCN(C(=O)c3cnc(-c4cccnc4)nc3)C2)OC1=O` (configuration not stated) gave NPYLR7 ag -2 and NPYLR7 ag max-min -2.
Screening CC(Oc1ccccc1F)C(=O)NCCCn1nc(-c2ccc(F)cc2)ccc1=O (configuration not stated) returned NPYLR7 ag -2 and NPYLR7 ag max-min -3.
`c1ccc2c(c1)oc1c(NCC3CCCCC3)ncnc12` gave NPYLR7 ag 6 and NPYLR7 ag max-min 1.
Screening CCOCC(=O)Nc1c(F)cccc1Br returned NPYLR7 ag 4 and NPYLR7 ag max-min 2.
`O=C1NC(=S)SC1=Cc1ccccc1F` gave NPYLR7 ag 3 and NPYLR7 ag max-min 5.
Screening CC1=C(C=NNc2ccc(F)cc2)C(=O)N(C)C(=O)C1C#N (configuration not stated) returned NPYLR7 ag 0 and NPYLR7 ag max-min -4.
CC(C)N(Cc1ccccn1)S(=O)(=O)c1c[nH]c(C(=O)N2CCCC2)c1 was read as NPYLR7 ag 1 and NPYLR7 ag max-min -3.
For CC1CCC2(CC1)NC(=O)N(CN1CCC(C(N)=O)CC1)C2=O (configuration not stated) the results were NPYLR7 ag 0 and NPYLR7 ag max-min 5.
`Cc1sc2nc(SCC(N)=O)[nH]c(=O)c2c1C` gave NPYLR7 ag -1 and NPYLR7 ag max-min -3.
For O=C(Cc1csc(NC(=O)c2ccc[nH]c2=O)n1)NCCCc1ccccc1 the results were NPYLR7 ag 2 and NPYLR7 ag max-min 5.
`Cc1ccc2oc(-c3ccccc3OCC(=O)N(C)Cc3ccco3)nc2c1` gave NPYLR7 ag 20 and NPYLR7 ag max-min 27.
`CCC(C)C(NC(=O)c1cccc(Br)c1)C(=O)Nc1nnc(-c2ccc(Cl)cc2)s1` (configuration not stated) gave NPYLR7 ag -3 and NPYLR7 ag max-min 6.
Screening COc1ccccc1N1CCN(C2CCCN(Cc3[nH]c4ccccc4c3C)C2)CC1 (configuration not stated) returned NPYLR7 ag 14 and NPYLR7 ag max-min 3.
